High-throughput results from PubChem BioAssay.
CSC inhib: blocks cancer stem cells; 1.1% of 300,000 active; cancer stem cell-like cells viability, luminescence; inhibition, % at 7.5 µM; AID 2717;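 active = mean at 75% or more and at least half the replicates too; inconclusive = mean and replicates disagree; tested in HMLE shEcad cells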;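 note: 0% = median of negative and 100% = median of positive control wells; the first replicate is given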
Env fusion inh: inhibitors of HIV Env-mediated cell fusion | HeLa-JRFL Env/CEM21 cell fusion, luciferase | inhibition, % at 12.3 µM | 1.1% of 360,000 active | AID 651610;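 active = mean replicate inhibition score of at least 50 and every replicate individually at or above 50; inconclusive = only one of the two criteria met; inactive = mean below 50 and not all replicates reaching 50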;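 note: 0% = plate neutral controls and 100% = maraviroc near 300 nM; one replicate is shown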
PABP polyA inh: blocks human PABP binding to poly(A) RNA | fluorescence polarization | P11940 | 1% of 290,000 active | inhibition, % at 35 µM | AID 2014;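 active = 50% or more with normal probe brightness, or confirmed in later tests; inconclusive = above 50% with abnormal brightness, or retests that disagree; inactive = below 50% or failed in later tests; about a fifth of its hits are not listed in these tables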;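 note: calls also rest on retests at 20 µM and on dose response follow-up; controls were probe without protein and protein plus probe with vehicle; some compounds called inactive have numbers as strong as hits; many hits fall short of the cut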
Target sequence (P11940 whole entry, looked up): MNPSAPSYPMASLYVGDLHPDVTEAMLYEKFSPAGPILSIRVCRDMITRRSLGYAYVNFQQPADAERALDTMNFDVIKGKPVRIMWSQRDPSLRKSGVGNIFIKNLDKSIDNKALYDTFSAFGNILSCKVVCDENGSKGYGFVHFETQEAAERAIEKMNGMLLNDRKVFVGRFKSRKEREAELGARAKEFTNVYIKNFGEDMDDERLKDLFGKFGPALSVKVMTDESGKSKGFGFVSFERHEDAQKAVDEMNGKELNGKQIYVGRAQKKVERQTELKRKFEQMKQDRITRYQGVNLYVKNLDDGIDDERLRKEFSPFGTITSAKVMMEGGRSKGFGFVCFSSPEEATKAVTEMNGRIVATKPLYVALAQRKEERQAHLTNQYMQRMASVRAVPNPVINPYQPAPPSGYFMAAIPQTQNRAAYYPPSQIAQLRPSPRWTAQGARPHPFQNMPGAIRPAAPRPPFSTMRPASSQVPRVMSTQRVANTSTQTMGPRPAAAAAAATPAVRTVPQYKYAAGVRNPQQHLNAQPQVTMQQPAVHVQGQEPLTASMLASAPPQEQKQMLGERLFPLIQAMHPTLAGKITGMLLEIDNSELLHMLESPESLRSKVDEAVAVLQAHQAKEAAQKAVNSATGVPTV
UUG fidelity: modulators of start codon recognition fidelity in yeast. S. cerevisiae UUG-firefly luciferase reporter, luminescence/redox ratio. activity score, % at 18.7 µM. 0.13% of 350,000 active. AID 602363;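 active = replicate mean at a twofold rise or more, about +100% in these data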;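 note: firefly luciferase made from a UUG start codon reports start codon fidelity; reporter light over untreated wells divided by growth signal over untreated wells; some hits fall short of that in this replicate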
eIF4H inh: inhibitors of RNA binding by human eIF4H; eIF4H fluorescence polarization binding assay; inhibition, % at 35 µM; AID 2012; 0.94% of 290,000 active; Q15056;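 active = 50% or more with normal probe brightness, or confirmed in later tests; inconclusive = above 50% with abnormal brightness, or retests that disagree; inactive = below 50% or failed in later tests; about a fifth of its hits are not listed in these tables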;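 note: calls also rest on retests at 20 µM and on dose response follow-up; 0% = protein and probe with vehicle and 100% = probe without protein; strong numbers were not always called active; many hits fall short of the cut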
Rce1 inhib: blocks yeast Ras-converting enzyme | calls only | AID 2563 | yeast membranes, quenched prenylated peptide cleavage fluorescence | 0.27% of 290,000 active | Q03530;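 active = fall in fluorescence gain of 50% or more versus controls, with final raw signal at or below 3038400; inconclusive = same 50% fall but final raw signal above 3038400; inactive = fall in fluorescence gain under 50%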;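 note: plate controls were neutral control wells for no effect and wells lacking membranes for full effect; tested at 10 µM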
MT1-MMP act inh: blocks activation of human MT1-MMP. P50281. HT1080 RFP-PRO-GFP cells, GFP/RFP ratio fluorescence, overnight; percent of plate control window, DMSO zero. GFP/RFP ratio change, % at 20 µM. 0.061% of 360,000 active. AID 651647;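 active = GFP/RFP ratio change of at least 30% with cell ATP level not reduced by more than half and red fluorescence within 50% of control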; note: strong numbers were not always called active
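Assay system: RFP-PRO-GFP reporter HT1080 cells; read-out basis: GFP/RFP fluorescence ratio; benchmarks: DMSO wells and RFP-L50D-GFP cells; doses: 20 µM single dose, 1% DMSO; schedule: overnight cell settling, then overnight compound exposure, 37 °C, 5% CO2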
eIF4H inh retest: also measured in eIF4H inh; calls as there; inhibition, %; compound at 20 µM; confirmation average;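 mean of two retest wells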
PABP polyA inh retest: second read-out of PABP polyA inh, no call of its own (marks repeat the call); inhibition, %; compound at 20 µM; confirmation repeats;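 mean of two retest wells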
MT1-MMP act inh RFP: recorded beside MT1-MMP act inh, whose call it bears; RFP signal change, %; measured here: RFP expression control read;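 0 = vehicle wells; hits needed this value within 50% of zero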
* hit, by the source's call; i = inactive; ? = inconclusive; nt = not tested or not shown. The list is partial, so the mix of outcomes need not match the whole.

SMILES	CSC inhib	Env fusion inh	PABP polyA inh	UUG fidelity	eIF4H inh	Rce1 inhib	MT1-MMP act inh	MT1-MMP act inh RFP	others
COCCOc1ccc(C(F)(F)F)cc1Nc1nc2ccccc2o1	0	nt	0	-8	-7	i	2	-2
COc1cccc(CN(C)C(=O)c2ccc(NC(=O)CC3SC(N4CCCC4)=NC3=O)cc2)c1OC (configuration not stated)	2	12	nt	nt	nt	i	4	0
O=C(NCc1nc(-c2ccc(Cl)cc2)no1)c1ccc2c(c1)OCO2	-1	-4	-5	-16	-12	i	3	2
COc1ccc(C(C)=O)cc1Cn1c(=O)cc(C)[nH]c1=O	nt	4	29	nt	-1	i	-2	1
C[C@@H]1CN([C@@H](C)CO)C(=O)c2cc(Br)cnc2O[C@H]1CN(C)C(=O)CCN1CCCCC1	nt	?	nt	-9	nt	nt	1	2
COc1cccc(/C=N/n2cncn2)c1OCC#N	-11	-24	10	-23	-2	i	2	5
COc1ccccc1-n1c(SCC(=O)N2CCCC2)nnc1-c1ccccc1	-9	-3	5	2	-8	i	-2	0
CC(C)[C@H](NC(=O)NC1CCCC1)C(=O)O	nt	nt	0	-14	2	i	4	4
CC(OC(=O)CN1C(=O)NC2(CCCC2)C1=O)C(=O)c1ccccc1 (configuration not stated)	-14	-10	nt	-7	nt	i	-2	3
CCOC(=O)N1CCN(C(=O)COc2cccc3c2CCN(CC)C3=O)CC1	-11	16	2	-11	-3	i	4	1
CCOc1cc(C(=O)N2CCN(c3ccc(C(C)=O)cc3)CC2)cc(OCC)c1OCC	-5	nt	-3	2	-1	i	3	-3
Cc1nnc(SCC(=O)N2CCC(C(N)=O)CC2)s1	-14	nt	0	-26	0	i	0	5

Continued; the last four above are carried over.
SMILES	CSC inhib	Env fusion inh	PABP polyA inh	UUG fidelity	eIF4H inh	Rce1 inhib	MT1-MMP act inh	MT1-MMP act inh RFP	others
CC(OC(=O)CN1C(=O)NC2(CCCC2)C1=O)C(=O)c1ccccc1 (configuration not stated)	-14	-10	nt	-7	nt	i	-2	3
CCOC(=O)N1CCN(C(=O)COc2cccc3c2CCN(CC)C3=O)CC1	-11	16	2	-11	-3	i	4	1
CCOc1cc(C(=O)N2CCN(c3ccc(C(C)=O)cc3)CC2)cc(OCC)c1OCC	-5	nt	-3	2	-1	i	3	-3
Cc1nnc(SCC(=O)N2CCC(C(N)=O)CC2)s1	-14	nt	0	-26	0	i	0	5
CCc1ccc2nc(N(CCCN(C)C)C(=O)c3ccc(S(=O)(=O)N4CCc5ccccc5C4)cc3)sc2c1	-1	23	-37	-6	-13	i	4	1
Cc1nnn(C23CC4CC(CC(C(=O)NN)(C4)C2)C3)n1	-1	-1	11	nt	10	i	2	8
O=C(COC(=O)CCOc1ccccc1)Nc1ccc(Cl)cn1	-10	nt	-4	3	8	i	-1	1
CCC(C)N(C(=O)COc1ccccc1C(=O)NCc1ccccc1)C1CCS(=O)(=O)C1 (configuration not stated)	7	-6	-6	-9	-4	nt	3	5
COc1cc2c(cc1OC)C(c1ccccc1F)NCC2 (configuration not stated)	-13	-27	-4	-15	0	i	-2	0
COc1ccccc1/C=C/c1onc(C)c1S(=O)(=O)N1CCC(C(=O)NC2CCCCCC2)CC1	10	-12	10	-6	11	i	0	-4
CCOC(=O)C(=CNc1cc(Cl)c(-c2ccco2)c(Cl)c1)C(=O)OCC	20	-81	-1	-13	-13	i	-1	-9
COc1ccc(C(=O)N/N=C/c2ccc(OC)c(CN3CCN(c4ccc(F)cc4)CC3)c2)cc1	9	nt	5	-12	-4	i	3	1
CCc1ccc(/C=N/NC(=O)c2c[nH]c3ccccc23)s1	31	-141	0	-12	2	i	12	0
Cc1ccc(N(C(=O)c2csnn2)C(C(=O)NC(C)(C)C)c2ccncc2)cc1 (configuration not stated)	1	nt	3	2	-4	i	8	0
COc1ccc2oc(C)c(C(=O)c3ccc(C)cc3)c2c1	-2	-8	-5	-11	6	i	-4	-4
COCCn1c(C)cc(C(=O)CN2c3cccc4cccc(c34)S2(=O)=O)c1C	12	-6	nt	-10	nt	nt	-1	-1

The closing 4 records of the section before open the next one:
SMILES	CSC inhib	Env fusion inh	PABP polyA inh	UUG fidelity	eIF4H inh	Rce1 inhib	MT1-MMP act inh	MT1-MMP act inh RFP	others
CCc1ccc(/C=N/NC(=O)c2c[nH]c3ccccc23)s1	31	-141	0	-12	2	i	12	0
Cc1ccc(N(C(=O)c2csnn2)C(C(=O)NC(C)(C)C)c2ccncc2)cc1 (configuration not stated)	1	nt	3	2	-4	i	8	0
COc1ccc2oc(C)c(C(=O)c3ccc(C)cc3)c2c1	-2	-8	-5	-11	6	i	-4	-4
COCCn1c(C)cc(C(=O)CN2c3cccc4cccc(c34)S2(=O)=O)c1C	12	-6	nt	-10	nt	nt	-1	-1
Oc1cc(O)c2c(c1)OC(c1ccc(O)c(O)c1)C(O)C2 (configuration not stated)	-9	-37	nt	-12	nt	nt	-2	1
CC(=O)N1CCc2cc(Br)cc(S(=O)(=O)NCCCN(C)Cc3ccccc3)c21	-14	5	21	-4	4	i	-1	3
CC(=O)Nc1cccc(C(=O)NCCc2ccco2)c1	1	-32	2	nt	3	i	-3	1
CCOc1ccc(N(CC(=O)NC2CCCCCC2)S(=O)(=O)c2c(C)noc2C)cc1	-4	1	-2	-3	-4	i	-1	-1
CCC1(c2ccccc2)NC(=O)N(CC(=O)N(CC(=O)Nc2ccccc2C(F)(F)F)Cc2ccco2)C1=O (configuration not stated)	-7	-1	nt	15	nt	i	-3	1
CN(C)Cc1c(-c2ccc(Cl)cc2)nc2ccc(Cl)cn12	5	2	4	nt	-6	i	-3	1
N#Cc1nc(-c2ccc(F)cc2)oc1NCCCn1ccnc1	-11	nt	1	nt	5	i	nt	nt
CCc1ccc(Nc2nnc(SCC(=O)Nc3cccnc3Cl)s2)cc1	10	-10	6	-2	-10	i	-1	5
O=C(O)C/C(=C\c1ccc2c(c1)OCO2)c1nc2ccccc2s1	-6	3	8	-8	5	i	-2	3
COc1cccc(-c2nn(-c3ccccc3)cc2CN2CCCO2)c1	2	11	11	4	-10	i	-2	1
Cc1ccccc1-c1cccc([C@@H]2C[C@H]3CN(Cc4cccnc4)C(=O)[C@]34CCCN24)c1	-17	-1	-11	nt	-16	i	-4	-3
COc1ccc(CC(=O)Nc2ccc(C)cc2O)cc1S(=O)(=O)N1CCOCC1	-9	10	nt	1	nt	i	-4	-1
CSc1ccc(C(c2c(C)[nH][nH]c2=O)c2c(C)[nH][nH]c2=O)cc1	-23	?	7	-22	-5	i	1	4
COc1cccc(NC(=O)CN2C(=O)NC3(CCCC3)C2=O)c1	-8	-10	11	-17	5	i	2	3
CCC(C(=O)NCc1ccc(C)o1)n1nc(C)c2c(C)n(-c3ccccc3)nc2c1=O (configuration not stated)	-7	2	91	-12	-2	i	-1	0	eIF4H inh retest=12;PABP polyA inh retest=11
CCN(Cc1ccccc1)S(=O)(=O)c1nc2nc(C)c(C)c(C)n2n1	-12	10	25	-17	8	i	-8	-11
O=C(Cn1cc(C(=O)c2cccs2)c2ccccc21)NCc1ccc2c(c1)OCO2	6	57*	3	-4	2	i	1	0
O=C(CCNC(=O)c1ccc(Br)cc1)NCc1ccccn1	nt	-5	nt	-20	nt	i	3	1
COc1cccc(-c2c(-c3cc(OC)cc(OC)c3)n(C)c3ccc(-c4ccc5cc[nH]c5c4)cc23)c1	nt	20	nt	-7	nt	nt	-3	-4
COc1ccccc1CNC(=O)CSC(=S)N1CCCC1	-14	-6	nt	-2	nt	i	2	2
CCOC1=NS(=O)(=O)c2ccccc21	-2	8	-3	nt	4	i	0	7
O=C(Nc1ccccc1)Nc1nnc(SCc2ccc(Cl)cc2)s1	22	-3	-5	nt	1	i	-1	-6
COc1ccc(NC(=O)c2c(-c3ccccc3Cl)noc2C)c(OC)c1	nt	nt	-3	-11	5	i	-4	-9
CCOC(=O)N1CCN(C(=O)c2cc3c(=O)n(C)c4ccccc4c3n2C)CC1	-5	66*	-4	8	10	i	0	2
CCOc1ccc(N2C(=O)Nc3ccccc3C2(O)C(=O)NCc2ccc3c(c2)OCO3)cc1 (configuration not stated)	-8	-43	-6	-19	4	i	-2	2
Cc1cc2c(c(=O)o1)C(Cc1ccccc1)C(C#N)=C(N)O2 (configuration not stated)	-20	7	59*	-13	70*	i	-6	10
CN(C)S(=O)(=O)c1ccc(Cl)c(NC(=O)CN2CCCC2)c1	3	1	-6	-3	1	i	nt	nt
CCOc1ccc(/C=N/NC(=O)COc2ccccc2-c2ccccc2)cc1	78*	-330	5	-15	9	i	-9	-14
COC(=O)c1c(-c2ccc(F)cc2)csc1NC(=O)c1ccco1	-8	nt	-6	nt	-10	i	-2	-8
CCn1c(Cn2nnc(-c3ccccc3)n2)nnc1SCc1ccc(Cl)c(Cl)c1	-8	nt	-7	-14	-3	nt	1	-6
COc1ccc(C(N)=S)c(OC)c1	1	7	10	nt	-9	nt	3	2
Cc1ccc(OCCSc2nnc(NC(=O)c3ccco3)s2)cc1	-15	nt	-10	-15	-9	i	-5	-5
CC[C@H](C)[C@H]1CNC(=S)N1CC1CCN(CCC(C)(C)C)CC1	nt	-3	nt	-16	nt	nt	6	5
COc1ccc(C2c3c(ccc4ccccc34)Oc3ncn4nc(-c5ccco5)nc4c32)cc1OC (configuration not stated)	7	12	0	nt	-2	i	-5	-5
Oc1cc2ccccc2cc1-c1n[nH]c(=S)o1	20	-36	3	-25	9	nt	5	11
COc1ccccc1-c1cc(C(F)(F)F)nc(S(=O)(=O)CCCC(=O)N2CCCCC2C)n1 (configuration not stated)	65	16	16	-3	4	i	-15	-33
Cc1ccc(S(=O)(=O)N2CCOCC2)cc1C(=O)NC1CCCC1	2	1	5	-13	0	i	2	3
CCN(CC)CCN1c2ccccc2Sc2ccc3ccccc3c21	59	11	-1	-5	2	i	-3	-1
CC(C)NC(=O)NNC(=O)c1nn(-c2ccc(F)cc2)ccc1=O	-12	7	0	nt	1	nt	7	4
COc1cc(C(c2c(C)[nH][nH]c2=O)c2c(C)[nH][nH]c2=O)cc(Br)c1OC	-15	-17	3	-15	1	i	2	5
CC(=O)/C(=N\Nc1ccccc1Cl)Sc1cccc2cccnc12	31	nt	1	-8	-1	i	-6	-8
CCOc1ccc(S(=O)(=O)N(C)c2ccc(OCC(=O)NC3=NCCS3)cc2)cc1	-2	-5	-8	nt	-2	i	10	5
O=C(O)C1CCC(=O)N(C2CCCCC2)C1c1ccccc1 (configuration not stated)	2	-59	27	-9	16	i	-1	3
CC(/C=C/c1ccc2c(c1)OCO2)=N\NC(=O)c1cccc([N+](=O)[O-])c1	nt	nt	18	-14	1	i	18	5
CCCn1c(N)c(C(=O)COC(=O)CNC(=O)c2ccccc2OCC)c(=O)[nH]c1=O	nt	-15	nt	15	nt	nt	0	1
